# Lassa entry: inhibitors of Lassa virus binding or entry into cells. hit rate 4.1% among 18,000. Lassa virus pseudotyped entry inhibition, cell-based qHTS; control for the full effect not named in the record; many of its hits are not listed in these tables. AID 720533. Potency, µM (titrated, usually from 49.2 µM), for the others: at the highest dose activity change, negative = inhibition, most hits filed as inhibitors; active = well fitted inhibition curve with a large enough effect; inconclusive = small, poorly fitted or top-dose-only effect; inactive = no such curve, though single readings can be large or run the other way; tested in HEK293 cells; also: luciferase read-out
# MARV entry inh: Marburg virus entry inhibition; Marburg virus pseudotype entry/binding inhibition, cell-based; control for the full effect not named in the record; many of its hits are not listed in these tables; Potency, µM (titrated, usually from 49.2 µM), for the others: at the highest dose activity change, negative = inhibition, usual class: inhibitors; hit rate 6.5% among 18,000; AID 720532; active means well fitted inhibition curve with a large enough effect; inconclusive means small, poorly fitted or top-dose-only effect; inactive means no such curve, though single readings can be large or run the other way; tested in HEK293 cells; also: luciferase read-out
# * marks the source's active call; other numbers are inactive results; ? = inconclusive; . = not tested or not shown; & = joins results of further samples; [ ] = dose if it differs, or a comment. % is scaled to controls: 0 for no effect and ±100 for the full control effect; potency is read from the fitted curve at half-maximal effect. Not all compounds are listed (hit frequency here may not be typical).
SMILES,Lassa entry,MARV entry inh
COc1ccc([C@H]2C[C@H](n3cc(COC(=O)c4ccccc4)nn3)[C@@H](O)CN2Cc2cccs2)cc1,-12.9%,?
Clc1ccc2ncnc(NCc3ccc4c(c3)OCO4)c2c1,1.2%&2.8%&5.8%,-24.8%&14.9%&6.3%
COC(=O)c1ccccc1-c1cc(C)cc2c1OC(CNC(=O)c1cc(C)on1)C2 (configuration not stated),-15.1%,?
CO[C@H]1C=CO[C@@]2(C)Oc3c(C)c(O)c4c(O)c(c(/C=N/N5CCN(C6CCCC6)CC5)c(O)c4c3C2=O)NC(=O)/C(C)=C\C=C[C@H](C)[C@H](O)[C@@H](C)[C@@H](O)[C@@H](C)[C@H](OC(C)=O)[C@@H]1C,?,-17.9%
C[C@H]1OC(=O)CC[C@@H]2[C@]1(C)CCC1[C@@]2(C)CC[C@@]2(C)C3CC(C)(C)CC[C@]3(CO)CC[C@]12C (some centres not stated),-4.4%,-8.6%
COc1cc2nc(N(C)C)c(CNCc3nonc3C)cc2c(OC)c1OC,-9.9%,0.5%
C=CCC1=C(C)C(OC(=O)C2C(C=C(C)C)C2(C)C)CC1=O (configuration not stated),28.2µM*,?
CCN(CC)CC1CCN(c2ncc3ncnc(Nc4ccc(F)c(Cl)c4)c3n2)CC1,?,3.55µM*
Cc1cccc(C2=NN(c3ccccc3)[C@@H](C(=O)N3CCOC3=O)[C@@H]2C)c1,-18.3%,-9.3%
c1nc2nc(Nc3ccc(N4CCOCC4)cc3)nc(NC3CCCCC3)c2[nH]1,?,?
COc1cc(OC)c(OC)cc1CN1CCCC(c2[nH]ncc2-c2cccc(C(F)(F)F)c2)C1 (configuration not stated),-29.7%,?
CC(=O)CC(c1ccc(O)cc1)c1c(O)c2ccccc2oc1=O (configuration not stated),-3.1%,7.5%
COP(=O)(OC)[C@@H](O)C(Cl)(Cl)Cl,3.98µM*,9.8%[17.8 µM]
C[C@@H]1O[C@@H](O[C@@H]2C=C3CC[C@@H]4[C@H](CC[C@]5(C)[C@@H](c6ccc(=O)oc6)CC[C@]45O)[C@@]3(C)CC2)[C@H](O)[C@H](O)[C@H]1O,1µM*,?
CCCCCCCCNS(=O)(=O)CCNCCc1ccccc1,4.3%,-10.5%
C=C[C@@H](C[C@@H]1C=C[C@H]2C[C@H](C=C)OP(=O)(O1)O2)O[Si](C)(C)C(C)(C)C,-11.2%,?
CC(=O)OCC(=O)C1CCC2C3CCC4=CC(=O)CC[C@@]4(C)C3CC[C@]12C (some centres not stated),1.1%,-4.0%
O=C1CC[C@@H](C(=O)N[C@@H](Cc2cnc[nH]2)C(=O)N[C@@H](Cc2c[nH]c3ccccc23)C(=O)N[C@@H](CO)C(=O)N[C@@H](Cc2ccc(O)cc2)C(=O)O)N1,2.8%,10.4%
COc1c(-c2coc3cc4c(cc3c2=O)CC(O)C(C)(C)O4)ccc2c1C=CC(C)(C)O2 (configuration not stated),?,?
COC(=O)[C@H](CCSC)NC(=O)c1ccc(NC[C@@H](N)CS)cc1-c1ccccc1,-5.9%,-23.4%
CNC1C(O)[C@@H]2OC(O[C@@H]3C(O)C(O)C(N)C[C@H]3N)C(N)C[C@H]2O[C@H]1O[C@@H]1OC(CO)C(N)C(O)C1O (some centres not stated),5.5%,-0.1%
CCCCS(=N)(=O)CCC(N)C(=O)O (configuration not stated),-1.4%,7.9%
CCNC(=O)[C@H]1O[C@@H](n2cnc3c(N)ncnc32)[C@H](O)[C@@H]1O,-1.5%&-17.0%,3.1%&-3.4%
CS(=O)(=O)Nc1ccc([N+](=O)[O-])cc1OC1CCCCC1,-12.4%&0.5%,16.3%&-14.0%
COc1cccc([C@@H]2Oc3ccc(Br)cc3C(=O)[C@H]2OC(=O)NS(=O)(=O)c2ccc(F)cc2)c1,11.3%,38.9%[activator]
# Other records follow:
SMILES,Lassa entry,MARV entry inh
CC(C)(C)OC(=O)N1CCC(C(=O)Nc2cccc(C(=O)NC3CC3)c2)CC1,61.7%[activator],46.1%
NC1=NCCN1CC(=O)O,5.2%,-1.7%
CCN1C[C@@]2(C)CC[C@@H](OC)[C@@]34C2C(O)[C@@]2(OCO[C@]25CC(OC)C2C[C@@]3(O)C5C2O)C14 (some centres not stated),-9.0%,-3.9%
C/C(=C\[C@@H](N)C(=O)O)CP(=O)(O)O,5.2%,2.6%
CCN(CC)CCOc1ccc2nc(N(C)C)sc2c1,11.9%,-3.5%
Cc1ccc(S(=O)(=O)NC(=O)NC2CCCC2)cc1,-15.3%,4.2%
C[C@H]1NC(=O)NC1=O,1.7%&-1.5%[17.8 µM],0.9%&2.2%[17.8 µM]
CCC(=O)OC(OP(=O)(CCCCc1ccccc1)CC(=O)N1C[C@H](C2CCCCC2)C[C@H]1C(=O)O)C(C)C (some centres not stated),-5.3%,24.5%
CC(Cc1ccc(C(C)(C)C)cc1)CN1CCCCC1 (configuration not stated),4.3%,9.0%
C[C@@H]1O[C@H](O[C@@H]2CC[C@@]3(C=O)[C@H]4CC[C@@]5(C)[C@@H](C6=CC(=O)OC6)CC[C@@]5(O)[C@@H]4CC[C@]3(O)C2)C[C@H](O)[C@@H]1O,3.55µM*,3.55µM*
NC(=O)c1ccc[n+]([C@@H]2O[C@H](COP(=O)([O-])OP(=O)(O)OC[C@H]3O[C@@H](n4cnc5c(N)ncnc54)[C@H](O)[C@@H]3O)[C@@H](O)[C@H]2O)c1,-16.2%[17.8 µM],8.2%[17.8 µM]
COc1cccc(C(=O)N(Cc2cc3cc4c(cc3nc2N(C)C)OCO4)CC2CCCO2)c1 (configuration not stated),-1.6%,?
O=C(OCc1cn([C@H]2CN(C(=O)C3CCCCC3)[C@@H](c3ccc(Cl)cc3)C[C@H]2O)nn1)c1ccccc1,-15.7%,-39.6%
COc1cc2c(cc1OC)[C@]13CCN4CC5=CCOC6CC(=O)N2[C@@H]1[C@@H]6C5C[C@@H]43 (some centres not stated),9.9%,?
CC(=O)[C@@]1(O)CC[C@H]2[C@@H]3C=C(Cl)C4=CC(=O)CC[C@]4(C)[C@H]3CC[C@@]21C,-21.0%,1.0%
COc1cc2c(c(OC)c1OC)C(c1ccccc1)(c1ccccc1)CC2NC(=O)C(F)(F)F (configuration not stated),9.6%[8.59 µM],-9.6%[8.59 µM]
C=CC(C)(C)c1c2c(c(O)c3c(=O)c4ccc(O)c(O)c4oc13)C=CC(C)(C)O2,?,20µM*
CCCCCCN1C[C@H](O)[C@@H](n2cc(C3CC3)nn2)C[C@H]1c1ccc(Cl)cc1,-32.1%,?
CC(C)Cn1c(=O)n(C)c(=O)c2[nH]cnc21,-10.0%&11.6%&1.3%&-15.5%,10.3%&14.5%&3.5%&8.0%
c1cc2c(cc1C1OC[C@@H]3C(c4ccc5c(c4)OCO5)OCC13)OCO2 (some centres not stated),-0.6%,0.9%
COCCN1C(=O)NC(c2ccco2)C(C(=O)OC)=C1C (configuration not stated),2.2%[8.59 µM],3.0%[8.59 µM]
CC1(C)O[C@@H]2C[C@H]3[C@@H]4C[C@H](F)C5=CC(=O)CC[C@]5(C)[C@H]4[C@@H](O)C[C@]3(C)[C@]2(C(=O)CO)O1,-7.2%[17.8 µM],15.3%[17.8 µM]
C=CCN(CC=C)Cc1cc(=O)oc2ccc3ccccc3c12,.,?
Cn1ccc2c(-c3ccc(C(N)=O)cc3)cc3c(c21)C1CCC3O1 (configuration not stated),3.2%,16.7%
O=S1(=O)CCSCCN1Cc1ccccc1Br,23.5%,19.0%

# Record cards, as listed above.
# `CC(C)Cn1c(=O)n(C)c(=O)c2[nH]cnc21` as listed: Lassa entry: -10.0%&11.6%&1.3%&-15.5%; MARV entry inh: 10.3%&14.5%&3.5%&8.0%
# `CC(=O)[C@@]1(O)CC[C@H]2[C@@H]3C=C(Cl)C4=CC(=O)CC[C@]4(C)[C@H]3CC[C@@]21C` as listed: Lassa entry: -21.0%; MARV entry inh: 1.0%
# `CC(Cc1ccc(C(C)(C)C)cc1)CN1CCCCC1` (configuration not stated) as listed: Lassa entry: 4.3%; MARV entry inh: 9.0%

# Later entries:
SMILES,Lassa entry,MARV entry inh
COCCN1CCN(C(=O)c2cnn(-c3ncc4c(n3)-c3ccc(OC)cc3CC4)c2C2CC2)CC1,-11.0%,-7.4%
Cc1cccc(CNc2ccnc(-c3ccc(C(=O)N(C)C)cc3)n2)c1,-10.3%,9.1%
OCCN1CCN(Cc2ccc3c(c2)CN(Cc2cnc(-c4ccccc4)s2)CCO3)CC1,0.3%,-21.3%
Nc1ccn(C[C@@H](CO)OCP(=O)(O)O)c(=O)n1,-1.4%,15.1%
COC(=O)N[C@@H](C=Cc1ccccc1)C[N+](=O)[O-],-19.4%[8.59 µM],7.3%[8.59 µM]
COc1cc2oc(=O)cc(-c3ccc(-c4ccc(C#N)cc4)cc3)c2c(OC)c1OC,0.9%,13.0%
Cc1ccc(-c2ccc(C(=O)NCc3ccc(Cl)cc3)o2)c2ccccc12,?,-8.9%
C[C@@H]1[C@@H](c2ccccc2)Oc2c(Cl)cccc2S(=O)(=O)N1C,2.9%,17.5%
COC(=O)[C@H]1O[C@@H](c2cc(OC)c(C)c(OC)c2OCc2ccccc2)[C@H](C)[C@H]2O[C@@]12C,6.5%&-5.3%,-0.3%
CCCCNc1cccc2c1S(=O)(=O)N[C@H](CC(C)C)CO2,9.9%,6.7%
CC(=O)Nc1ccc(S(=O)(=O)Nc2ccc([N+](=O)[O-])cc2)cc1,1.8%,-7.9%
CCOC(=O)Cn1cccc1-c1nc(-c2ccc(OC)cc2)c(-c2ccc(OC)cc2)s1,?,?
CC(C)C[C@@H](CC(=O)N[C@H](CC(=O)N[C@@H]1CCCC[C@H]1C(=O)N[C@H](CC(=O)N[C@@H](CCC(=O)O)CC(=O)O)CC(C)C)C(C)C)NC(=O)[C@@H]1CNCC[C@H]1N,0.1%,-5.7%
COc1ccc(-c2coc3ncnc(N)c23)cc1,-18.2%,-38.4%
Cc1oc(-c2cccc(NC(=O)c3ccccn3)c2)nc1CNC(=O)c1cc(F)c(F)cc1F,5.6%,-24.7%
C[C@@H]1NC(=O)[C@@H](C)COC(=O)[C@H](C)NC(=O)[C@@H](C)COC1=O,9.6%[8.59 µM],6.9%[8.59 µM]
CCC(=O)c1ccc2c(c1)N(CCCN1CCN(CCO)CC1)c1ccccc1S2,14.1µM*,10µM*
CN1CC[C@]23c4c5ccc(O)c4O[C@H]2[C@@H](O)CC[C@H]3[C@H]1C5,-4.7%,-10.8%
O=C1CC[C@H](N2C(=O)c3ccccc3C2=O)C(=O)N1,-1.9%,0.4%
Cc1cc(OCCOCC[N+](C)(C)Cc2ccccc2)ccc1C(C)(C)CC(C)(C)C,25.1µM*,22.4µM*
Cc1ncc2c(c1CNC(=O)CN1CCCCC1)CCN(C(=O)c1ccc(F)cc1Cl)C2,-9.6%,-3.6%
CC1(OC(=O)CCc2ccccc2)C(=O)C=C2C=C(c3ccc(C#N)cc3)N(C(CO)CO)C=C2C1=O (configuration not stated),0.1%[8.59 µM],35.1%[activator][8.59 µM]
CC1c2ccccc2CN1CC1=NCCN1 (configuration not stated),6.5%,11.9%
Cc1oc(-c2ccccc2NC(=O)c2ccccc2)nc1CNC(=O)c1cccc(-n2cccn2)c1,-10.6%,?
Cc1cc2c(c(-c3nc4ccccc4s3)c1)OC(CNC(=O)c1occc1C)C2 (configuration not stated),?,?

# 3 records drawn at random from the list so far:
SMILES,Lassa entry,MARV entry inh
C[C@@H]1NC(=O)[C@@H](C)COC(=O)[C@H](C)NC(=O)[C@@H](C)COC1=O,9.6%[8.59 µM],6.9%[8.59 µM]
Cc1cc(OCCOCC[N+](C)(C)Cc2ccccc2)ccc1C(C)(C)CC(C)(C)C,25.1µM*,22.4µM*
O=C1CC[C@H](N2C(=O)c3ccccc3C2=O)C(=O)N1,-1.9%,0.4%

# Going on with the list.
SMILES,Lassa entry,MARV entry inh
CCOC(=O)C1C(C(=O)OC)=C(CC(C)C)c2ccccc2N1S(=O)(=O)C(F)(F)F (configuration not stated),-4.4%,?
O=C(NCCNCC(O)COc1ccc(O)cc1)N1CCOCC1 (configuration not stated),-21.3%,-9.6%
C[C@H](O)CO[C@H]1[C@H]2O[C@H]3[C@H](O)[C@@H](O)[C@@H](O[C@H]4[C@H](O)[C@@H](O)[C@@H](O[C@H]5[C@H](O)[C@@H](O)[C@@H](O[C@H]6[C@H](O)[C@@H](OC[C@H](C)O)[C@@H](O[C@H]7[C@H](O)[C@@H](OC[C@H](C)O)[C@@H](O[C@H]8[C@H](O)[C@@H](O)[C@@H](O[C@@H]([C@@H]1O)[C@@H](CO)O2)O[C@@H]8CO)O[C@@H]7CO)O[C@@H]6CO)O[C@@H]5CO)O[C@@H]4CO)O[C@@H]3CO,-1.6%,-1.6%
COc1cc(NCc2ccc3nc(N)nc(N)c3c2C)cc(OC)c1OC,?,4.47µM*
Oc1cc2c(cc1O)[C@H]1c3ccccc3CN[C@H]1CC2,?,25.1µM*
CCOC(=O)C(CCc1ccccc1)NC(C)C(=O)N1CCCC1C(=O)O (configuration not stated),3.5%,5.7%
O=S(O)CO,-0.1%,-0.9%
CC(C)[C@@H](CC(=O)N[C@@H]1CCNC[C@H]1C(=O)N[C@H](CC(=O)N[C@@H](CCC(=O)O)CC(=O)O)Cc1c[nH]c2ccccc12)NC(=O)C[C@H](Cc1c[nH]c2ccccc12)NC(=O)[C@@H]1CCCC[C@H]1N,3.5%,-7.4%
Cc1cnc(CNc2cc(-c3ccoc3)ncn2)cn1,-2.5%,-3.7%
CON(Cc1ccccc1)S(=O)(=O)c1ccccc1Br,-3.5%,22.8%

# Compound activity as filed in PubChem.
